Cruzain noTriton: qHTS Assay for Promiscuous and Specific Inhibitors of Cruzain (without detergent) | purified cruzain, Z-FR-AMC fluorescence, no detergent | Potency, µM, without a hit: max response, negative = inhibition, actives largely listed as inhibitors | Cruzipain (Trypanosoma cruzi), P25779 | AID 1476, 2009 | hit rate 2.3% among 200,000;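 note: plate controls were enzyme without inhibitor for no effect and buffer without enzyme for full effect; nearly all actives have a fitted effect of over 40% in size; top concentration of the series not given in the record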
Target sequence (P25779 123-467 limits assumed): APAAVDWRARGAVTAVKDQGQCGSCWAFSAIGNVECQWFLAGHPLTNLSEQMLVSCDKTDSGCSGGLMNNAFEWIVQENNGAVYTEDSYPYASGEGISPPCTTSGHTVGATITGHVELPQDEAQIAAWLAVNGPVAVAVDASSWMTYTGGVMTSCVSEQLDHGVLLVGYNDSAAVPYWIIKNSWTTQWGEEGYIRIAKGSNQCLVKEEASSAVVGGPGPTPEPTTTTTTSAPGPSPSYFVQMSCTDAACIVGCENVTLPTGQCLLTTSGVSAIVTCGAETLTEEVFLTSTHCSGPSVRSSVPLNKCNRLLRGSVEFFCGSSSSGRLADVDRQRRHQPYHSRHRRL
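Detergent-free condition (0.00005% Triton X-100) in acetate buffer pH 5.5 with DTT. 1.5 nM enzyme and compound were pre-mixed 15 min, then 2 uM Z-FR-AMC substrate added; reaction progress from fluorescence change between first and third reads (60 s).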
RE007 growth inh: qHTS Assay for Inhibitors of the HIV-1 protein Vpr | S. pombe RE007 Vpr strain, BacTiter-Glo ATP luminescence, 24 h; control for the full effect not named in the record | Potency, µM (top dose mostly 92.2 µM), without a hit: at the top dose activity change, negative = less growth | hit rate 0.21% among 360,000; active = well fitted falling curve with a large enough effect; inconclusive = small, poorly fitted or top-dose-only effect; inactive = no such curve, though single readings can be large or run the other way;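 note: % is set by controls: 0 for no effect and ±100 for the full control effect; nearly all actives have a fitted effect of over 50% in size; the assay follows cell death caused by Vpr and the record does not say whether a fall means rescue or toxicity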
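Fission yeast RE007 carrying one integrated HIV-1 vpr copy, seeded at OD 0.01 in PMG+AL medium with 23 nL pinned compound. Grown 24 h at 30 degrees; viability read by BacTiter-Glo luminescence after 5 min.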
SARS PLP yeast: qHTS of Yeast-based Assay for SARS-CoV PLP | Potency, µM (top dose mostly 32.9 µM), for the others: top-dose activity, positive = growth rescue | S. cerevisiae expressing SARS-CoV PLpro, growth rescue; control for the full effect not named in the record | hit rate 0.19% among 330,000; active means well fitted rising curve with a large enough effect; inconclusive means small, poorly fitted or top-dose-only effect; inactive means no such curve, though single readings can be large or run the other way; note: 0% is about no effect; nearly all actives have a fitted effect of over 55% in size; growth read by luminescence after 48 h
NS1 function inh: qHTS Assay for Inhibitors of Influenza NS1 Protein Function; S. cerevisiae slowed by influenza A NS1, growth recovery by OD600; Potency, µM (highest dose often 46.1 µM), without a hit: at the top dose activity, positive = more growth; hit rate 0.4% among 270,000; AID 2326, 2010; active means well fitted rising curve with a large enough effect; inconclusive means small, poorly fitted or top-dose-only effect; inactive means no such curve, though single readings can be large or run the other way; note: nearly all actives have a fitted effect of over 50% in size
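Read-out: OD600 growth recovery of NS1-expressing budding yeast. Cells grown overnight at 30C in -URA glucose medium, washed, resuspended and diluted 1:100 in 2% galactose assay medium, pH 6.0. Same strain lacking NS1 served as positive control.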
2A StopGo: High Throughput Screening for Foot and Mouth Disease Virus Antivirals; human cells with a luciferase reporter of 2A StopGo recoding; control for the full effect not named in the record; Potency, µM (top dose mostly 57.9 µM), for inactives: top-dose signal change, negative = less light; hit rate 1.2% among 410,000; AID 1159524, 2015; active = well fitted falling curve with a large enough effect; inconclusive = small, poorly fitted or top-dose-only effect; inactive = no such curve, though single readings can be large or run the other way; tested in HEK293T cells; note: % is set by controls: 0 for no effect and ±100 for the full control effect; nearly all actives have a fitted effect of over 45% in size; luciferase light after 4 h
LASV entry inh: qHTS for Inhibitors of binding or entry into cells for Lassa Virus; hit rate 1.2% among 300,000; Potency, µM (highest dose often 37.9 µM), for inactives: at the top dose activity change, negative = inhibition, most hits filed as inhibitors; AID 540256, 2011; Lassa virus pseudotype entry inhibition, cell reporter; control for the full effect not named in the record; active means well fitted inhibition curve with a large enough effect; inconclusive means small, poorly fitted or top-dose-only effect, or effect the other way; inactive means flat fitted curve, though single readings scatter; tested in HEK293 cells; note: % is set by controls: 0 for no effect and ±100 for the full control effect; nearly all actives have a fitted effect of over 50% in size; luciferase read-out
Cruzain Triton: qHTS Assay for Promiscuous and Specific Inhibitors of Cruzain (with detergent); Cruzipain (Trypanosoma cruzi), P25779; purified cruzain, Z-FR-AMC fluorescence, 0.01% Triton; Potency, µM, inactives show max response, negative = inhibition, hits mostly inhibitors; hit rate 0.43% among 200,000; AID 1478, 2009;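 note: plate controls were neutral wells for no effect and buffer without enzyme for full effect; nearly all actives have a fitted effect of over 40% in size; top concentration of the series not given in the record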
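Sodium acetate buffer (100 mM, pH 5.5) containing 5 mM DTT and 0.01% Triton X-100 hosted 1.5 nM cruzain and test compound for 15 min at room temperature. Cleavage of 2 uM Z-FR-AMC was then tracked by fluorescence.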
Marburg entry inh: qHTS for inhibitors of binding or entry into cells for Marburg Virus; Marburg virus pseudotyped entry inhibition, cell reporter; control for the full effect not named in the record; about a third of the inactives were read at about 46 µM; Potency, µM (series often up to 37.8 µM), without a hit: at the highest dose activity change, negative = inhibition, actives largely listed as inhibitors; hit rate 1.8% among 300,000; AID 540276, 2011; active = well fitted inhibition curve with a large enough effect; inconclusive = small, poorly fitted or top-dose-only effect, or effect the other way; inactive = flat fitted curve, though single readings scatter; tested in HEK293 cells; about a fifth of its hits are not listed in these tables; note: % is set by controls: 0 for no effect and ±100 for the full control effect; luciferase read-out
An asterisk follows results filed as active; ? = inconclusive; . = no result given; & = joins results of further samples; [ ] = remark or other dose. Unless noted, calls come from the whole dose curve; as a rule, active = well fitted curve in the direction sought with a large enough effect; inconclusive = small, poorly fitted or top-dose-only effect, or another doubt; inactive = no such curve, though single readings can be large; an effect the other way counts as inactive or inconclusive. Potency is the fitted concentration of half-maximal effect.

molecule	Cruzain noTriton	RE007 growth inh	SARS PLP yeast	NS1 function inh	2A StopGo	LASV entry inh	Cruzain Triton	Marburg entry inh
CCOc1cc2[nH]c(=S)n(CCN3CCCCC3CC)c(=O)c2cc1OCC (configuration not stated)	-6.6%	-16.7%	3.5%	-0.4%	-5.6%	-11.2%	-1.5%	-15.0%
COCCNC(=O)c1ccccc1NC(=O)Nc1ccccc1	.	-18.8%	0.2%	3.2%	29.5%	10.3%	.	-1.2%[46.1 µM]
CC(=O)N1CCN(Cc2nc3cc(NC(=O)c4ccc(Cl)cc4)ccc3n2C)CC1	18.7%	1.8%	-4.3%	0.2%	?	-17.3%	0.7%	-18.9%
CCc1nnc(NC(=O)CCNC(=O)c2ccco2)s1	.	8.4%	3.0%	4.0%	-9.2%	5.3%[46.1 µM]	.	0.6%[46.1 µM]
Cc1nc2nc(SCC(N)=O)[nH]c2cc1Br	-15.8%	-2.2%	0.7%	-10.3%	0.2%	6.3%	-8.0%	?
OC(COc1ccc(OCc2ccccc2)cc1)CN1CCOCC1 (configuration not stated)	1.0%	2.5%	2.2%	1.1%	.	-18.1%	4.6%	5.0%
CCC(C)(C(=O)NC1CCCCC1)N(C(=O)c1ccccn1)c1ccc(C)cc1 (configuration not stated)	4.4%	23.2%	2.6%	3.5%	10.1%	11.3%	3.3%	-0.6%
O=C(c1ccc(CSc2nc3ccncc3[nH]2)cc1)N1CCCCC1	2.0%	-6.9%	-0.5%	-3.9%	-14.4%	-12.0%	-0.9%	-5.7%
O=C(Nc1ccc(N2CCN(C(=O)c3ccccc3)CC2)c(Cl)c1)c1cccnc1	1.7%	-3.8%	-5.7%	-2.9%	?	?	-1.6%	-19.7%
CC(C)CCNC(=S)Nc1ccc2nc3n(c(=O)c2c1)CCCCC3	20.9%	-25.0%	-16.6%	9.7%	0.7%	-2.1%	-14.3%	20.2%
O=C(Nc1ccc2nc3n(c(=O)c2c1)CCCCC3)C(=O)N1CCN(c2ccc(F)cc2)CC1	.	6.7%	1.9%	0.3%	-23.9%	.	.	.
O=C(OCc1nc2ccsc2c(=O)[nH]1)c1ccc(Cl)nc1	.	1.0%	-2.6%	.	-14.1%	-1.4%	.	?
CCCCCCCCCc1nc(N)n[nH]1	6.0%	1.3%	-31.1%	-76.8%	8.2%	-14.2%	3.1%	-3.2%
O=c1cc(CSc2ccc(Cl)cc2)[nH]c2[nH]n(-c3ccccc3)c(=O)c12	.	10.0%	5.8%	14.4%	-5.4%	11.0%	.	-1.4%[46.1 µM]
C[C@H](NC(=O)N1CCn2c1nc1ccccc12)C(=O)NCCc1ccccc1	.	0.1%	-1.9%	-1.9%	-6.9%	.	.	.
O=C(c1ccc(F)cc1)N1CCCCC(Sc2nnc3ccccn23)C1=O (configuration not stated)	-6.4%	-1.8%	.	-0.1%	10.1%	5.9%	4.2%	-17.5%
CCn1c(SCc2nc3ccccc3c(=O)[nH]2)nc2ccccc2c1=O	26.1%	-4.4%	12.9%	-5.6%	?	?	-4.5%	?
COc1ccc(CC(=O)N2CCNC2=O)cc1	-0.7%	-2.0%	1.9%	-2.7%	-7.2%	10.6%	3.8%	3.8%
O=C(O)c1cc2c(cn1)[nH]c1ccccc12	.	3.0%	-1.1%	1.5%	2.7%	9.8%[46.1 µM]	.	?
Cc1cccc(NC(=O)Cn2nnc3ccccc32)c1	.	19.9%	-0.2%	.	15.8%	27.7%	.	?
Cc1cccc(-n2ccc(=O)c(C(=O)Nc3ccc(S(=O)(=O)Nc4nccc(C)n4)cc3)n2)c1	.	-1.6%	-5.3%	0.1%	27.6%	.	.	.
Cc1ccc(NC(=O)/C=C/c2ccccc2Cl)cc1Cl	-21.1%	.	.	.	33.7%[activator]	9.0%[46.1 µM]	-2.2%	.
Cc1nn(C)c(C)c1S(=O)(=O)N1CCCC(C(=O)NC2CCCCC2)C1 (configuration not stated)	-8.9%	26.7%	-0.2%	-8.1%	-15.2%	-20.4%	2.9%	-8.0%
O=C(COc1ccc2c(c1)OCO2)Nc1ccc(Cl)cn1	.	71.7%	-4.6%	-4.3%	17.2%	-21.9%[46.1 µM]	.	?
CC1(C)Cc2c(sc3nc(-c4ccccc4Cl)n(N)c(=O)c23)CO1	7.4%	28.8%	8.7%	6.9%	0.0%	1.8%	3.6%	-13.8%
CC(=O)c1ccc(N2CCN(C(=O)c3noc4c3CSc3ccccc3-4)CC2)cc1	.	1.7%	8.0%	?	-25.3%	.	.	.
CCN(CC(=O)Nc1ccccc1C(F)(F)F)C(=O)CSCC(=O)Nc1cc(C)on1	.	0.2%	-2.5%	.	-19.2%	7.8%	.	7.3%
CC[C@H]1OC(=O)[C@H](C)[C@@H](O[C@H]2C[C@@](C)(OC)[C@@H](O)[C@H](C)O2)[C@H](C)[C@@H](O[C@@H]2O[C@H](C)C[C@H](N(C)C)[C@H]2O)[C@](C)(O)C[C@@H](C)CN(C)[C@H](C)[C@@H](O)[C@]1(C)O	2.4%	-0.9%	.	.	-23.9%	.	0.7%	.
COC(=O)c1c(SC)nc2ccccc2c1OCc1ccc(Br)cc1	?	.	.	.	-9.0%	-5.5%[46.1 µM]	-5.5%	4.6%[46.1 µM]
COc1ccc(S(=O)(=O)N2CCN(CC(=O)N3CCOCC3)CC2)cc1OC	.	-7.1%	-4.2%	.	11.1%	14.8%	.	-5.8%
Cc1nnc(SCC(=O)Nc2nccs2)n1C(C)C	.	4.0%	-2.3%	15.6%	-7.2%	33.2%[46.1 µM]	.	13.8%[46.1 µM]
Cc1cc(SCC#N)n2nc(C)c(-c3ccccc3)c2n1	-2.5%	-9.7%	2.2%	-59.6%	-10.4%	-18.4%	-3.7%	-15.3%
O=C(CNC(=O)c1ccc(Br)o1)NCC(=O)OCc1ccccc1	.	-1.6%	10.1%	.	8.5%	17.0%	.	9.8%
CC(C)Cn1cnc2c(Sc3c([N+](=O)[O-])ncn3C)nc(N)nc21	3.7%	1.8%	.	-2.8%	?	?	0.7%	-28.3%
COc1ccccc1NC(=O)c1c(C)cc(=O)oc1C	3.7%	1.1%	5.0%	1.8%	.	2.8%	-1.8%	2.8%&2.8%
Cc1nc2ccn(Cc3ccco3)c(=O)c2cc1C(=O)Nc1ccc(F)cc1	1.0%	.	.	.	-19.4%	-7.0%[46.1 µM]	-5.1%	.
c1ccc(-c2noc(-c3ccco3)n2)nc1	6.1%	-16.1%	29.0%	12.8%	-13.2%	?	3.2%	?
O=C(Cn1ccccc1=S)c1ccc(Cl)c(Cl)c1	.	0.0%	.	.	-18.3%	-2.4%	.	5.1%[46.1 µM]
COc1ccc(-n2c(Cc3cccn3C)nnc2SCC(=O)NCCc2ccccc2)cc1	?	-9.1%	-3.1%	-3.1%	17.2%	-28.9%[14.3 µM]	1.5%	0.0%&-1.4%
CCc1cc(=O)oc2c(C)c3c(cc12)CN(CCc1ccccc1OC)CO3	-6.2%	.	.	.	-14.4%	16.1%[46.1 µM]	-5.3%	?
O=[N+]([O-])c1ccc(NC2CCN(Cc3ccccc3)CC2)c2ccncc12	.	-12.6%	4.6%	-3.8%	-22.7%	-2.2%	.	?
CCc1ccc2[nH]c(=O)c(CN(CCN(CC)CC)C(=O)Nc3ccccc3OC)cc2c1	-10.5%	-16.6%	14.1%	-4.9%	-8.8%	-16.8%	-1.7%	?
C=CCn1c(SCC(=O)Nc2sccc2C(N)=O)nc2sc(CC)cc2c1=O	-7.2%	11.5%	1.7%	4.3%	25.1µM*	?	-7.5%	12.6µM*
CN(/N=C/c1ccncc1)c1cnc2ccccc2n1	.	?	-1.0%	.	23.8%	?	.	1.9%
Cc1ccc(-n2c(O)c(C=NCCN3CCNCC3)c(=O)[nH]c2=S)cc1	.	-2.9%	0.8%	2.6%	0.4%	.	.	.
CC(C)CCN1CCN(Cc2cc(F)ccc2-n2cccn2)CC1CCO (configuration not stated)	.	5.5%	-0.4%	0.1%	-14.8%	2.3%	.	?
Cc1cccc(CC(=O)N2CC(=O)Nc3ccc(Br)cc3C2c2ccc(F)cc2)c1 (configuration not stated)	?	.	.	.	-24.7%	?	-7.3%	-19.5%[46.1 µM]
COc1ccccc1C(=O)NC1(C(F)(F)F)C(=O)NC(C)=C1C#N (configuration not stated)	-0.8%	.	.	.	6.2%	1.9%[46.1 µM]	-2.3%	-11.4%[46.1 µM]
COc1ccc(C(=O)NC(=S)N2CCN(c3ccccc3OC)CC2)cc1	.	?	-0.7%	-7.1%	-14.0%	-0.7%[46.1 µM]	.	?
Cc1[nH]c2ccc(C(=O)Nc3ccc(F)cc3)cc2c1C	-18.0%	.	.	.	38.4%[activator]	-29.0%[46.1 µM]	-9.2%	.
Cc1ccc(C(=O)NNC(=O)c2ccc3ncccc3c2)cc1	.	-11.3%	0.7%	2.7%	7.6%	14.2%	.	5.9%[46.1 µM]
O=C(COc1ccccc1)NCc1ccc2c(c1)CCN2C(=O)c1ccc(Cl)cc1	0.8%	.	.	.	0.3%	?	-3.7%	.
CC(C)NC(=O)C(=O)N/N=C/c1ccco1	2.2%	3.8%	-4.4%	13.4%	.	1.5%	-5.0%	3.9%
Cn1cc(C(=O)N2CCCCC2)c(=O)c2cc(S(=O)(=O)N3CCCC3)ccc21	.	14.2%	-4.0%	6.0%	7.9%	.	.	.
CCN(C(=O)CSc1nc2ccccc2c(=O)n1CCOC)C1CCS(=O)(=O)C1 (configuration not stated)	.	-6.4%	0.4%	.	-9.8%	-7.1%	.	3.3%[46.1 µM]
CC(C)n1nnnc1SCC(=O)NCc1ccco1	.	9.4%	.	13.2%	3.3%	19.3%	.	15.0%

Compound activity (PubChem BioAssay)
